Assay outcomes from PubChem BioAssay.
Vaccinia stage – blocks a specific stage of Vaccinia orthopoxvirus infection, primary screen, cell-based, single point; Vaccinia-infected cells, mCherry/Venus stage reporter fluorescence; active compounds read low; some inactives read as strong as hits; activity change (mCherry), % (no concentration beside the values); actives 0.01% (n = 89,000); AID 1053133, 2014;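 active means mCherry past -33% and 40 or more points under the early reporter, replicates agreeing; inconclusive means past -33% without that gap or agreement; tested in A549 cells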;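 further: scaled between vehicle wells and reference inhibitor wells; 23 nL library stock went into each well; one replicate is shown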
Vaccinia stage Venus – also measured in Vaccinia stage; calls as there; activity change (Venus), %; measured here: Venus reporter, other viral stage;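 negative = less Venus signal; first of two replicates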
The depositor's hits bear a star; u = inconclusive; x = not tested or not shown. Not all compounds are listed; count on the stated rates, not on these rows.

SMILES | Vaccinia stage | Vaccinia stage Venus
Cc1noc(C)c1S(=O)(=O)N(C)C[C@@H]1Oc2ccc(NC(=O)NC3CCCCC3)cc2CC(=O)N([C@H](C)CO)C[C@H]1C | 17 | 17
COCC(=O)N1C[C@H]2[C@@H](c3ccccc31)[C@H](CO)N2C(=O)Nc1ccccc1Cl | 10 | 8
Cc1noc(C)c1S(=O)(=O)N(C)C[C@H]1OCc2cnnn2CCCC(=O)N([C@@H](C)CO)C[C@H]1C | 10 | 1
Cc1noc(C)c1NC(=O)N(C)C[C@H]1OCCCC[C@@H](C)Oc2ccc(NC(=O)C3CCCCC3)cc2C(=O)N([C@H](C)CO)C[C@H]1C | 27 | 9
C[C@@H]1CN([C@H](C)CO)C(=O)CCCn2cc(nn2)CO[C@H]1CN(C)CC1CCCC1 | 10 | -1
CC(C)NC(=O)N[C@@H]1C=C[C@@H](CC(=O)O)O[C@@H]1CO | 3 | 2
COc1cccc(-c2ccc3c(c2)O[C@@H](CN(C)C(=O)c2ccccc2F)[C@H](C)CN([C@@H](C)CO)S3(=O)=O)c1 | u | x
C[C@H]1CCCCO[C@H](CN(C)Cc2ccccc2)[C@@H](C)CN([C@@H](C)CO)C(=O)c2cc(NC(=O)Cc3ccccc3)ccc2O1 | -30 | -25
C[C@@H]1CN([C@H](C)CO)C(=O)Cc2cc(NC(=O)c3ccncc3)ccc2O[C@H]1CN(C)C(=O)Nc1ccccc1 | 26 | 23
C[C@@H]1CN([C@@H](C)CO)C(=O)c2cc(NS(=O)(=O)c3ccc(Cl)cc3)ccc2O[C@H]1CN(C)Cc1ccncc1 | 8 | 4
CC(C)CC#Cc1ccc2c(c1)O[C@@H](CN(C)C(=O)Cc1ccncc1)[C@@H](C)CN([C@H](C)CO)S2(=O)=O | -34 | -20
CN1CCN(C(=O)C[C@@H]2C[C@@H]3c4cc(NC(=O)C5CCC5)ccc4O[C@@H]3[C@@H](CO)O2)CC1 | 9 | 14
COc1cccc(C#Cc2ccc3c(c2)O[C@@H](CN(C)C(C)=O)[C@@H](C)CN([C@@H](C)CO)S3(=O)=O)c1 | u | x
C[C@H]1CCCCO[C@@H](CN(C)Cc2ccc(C(=O)O)cc2)[C@@H](C)CN([C@@H](C)CO)C(=O)c2cc(NC(=O)Cc3ccccc3)ccc2O1 | 21 | 9
COc1cccc(S(=O)(=O)N[C@H]2CC[C@@H](CC(=O)NCc3ccc(F)cc3)O[C@@H]2CO)c1 | 2 | 1
CCCNC(=O)C[C@@H]1C[C@H]2c3cc(NS(=O)(=O)c4ccc(F)cc4)ccc3O[C@H]2[C@@H](CO)O1 | 13 | 8
C[C@@H]1CN([C@H](C)CO)C(=O)c2cc(NC(=O)Nc3ccccc3)ccc2O[C@H]1CN(C)Cc1ccc2c(c1)OCO2 | -27 | -24
CC(C)C#Cc1cnc2c(c1)C(=O)N([C@H](C)CO)C[C@@H](C)[C@H](CN(C)C(=O)Nc1cccc(F)c1)O2 | 11 | 3
C[C@@H]1CCCCO[C@@H](CN(C)CC2CCCCC2)[C@H](C)CN([C@@H](C)CO)C(=O)c2cc(NS(C)(=O)=O)ccc2O1 | -12 | -7
C[C@@H]1CN([C@H](C)CO)C(=O)CCCn2nncc2CO[C@H]1CN(C)C(=O)C1CCCCC1 | 5 | 7
OC[C@H]1[C@@H](c2ccc(C#CC3(O)CCCC3)cc2)[C@H]2CN(Cc3ccncc3)CCCCN21 | 9 | 10
CNC[C@H]1Oc2c(NS(C)(=O)=O)cccc2C(=O)N([C@@H](C)CO)C[C@H]1C | 5 | 1
C[C@@H]1CCCCO[C@@H](CN(C)S(=O)(=O)c2ccc(F)cc2)[C@@H](C)CN([C@@H](C)CO)C(=O)c2cc(NS(=O)(=O)c3cn(C)cn3)ccc2O1 | 6 | -7
CCCNC(=O)N1[C@H](CO)[C@@H](c2ccccc2-c2ccc(OC)cc2)[C@@H]1C#N | u | x
C[C@@H]1CCCCO[C@@H](CN(C)S(C)(=O)=O)[C@@H](C)CN([C@H](C)CO)C(=O)c2cc(NS(=O)(=O)c3ccccc3)ccc2O1 | 15 | 6
Cc1ccc(-c2cnc3c(c2)C(=O)N([C@@H](C)CO)C[C@@H](C)[C@H](CN(C)C)O3)cc1 | 2 | -5
C[C@H](CO)N1C[C@H](C)[C@@H](CN(C)C(=O)Nc2ccc(C(F)(F)F)cc2)OCc2cn(nn2)CCCC1=O | -3 | 6
CC(=O)N1[C@@H](CO)[C@@H](c2ccccc2)C12CN(Cc1cc(F)ccc1F)C2 | 2 | 4
COc1ccc(NC(=O)Nc2ccc3c(c2)C(=O)N([C@@H](C)CO)C[C@H](C)[C@H](CN(C)S(=O)(=O)c2ccc(C)cc2)OCCCC[C@H](C)O3)cc1 | -1 | 2
C[C@H](CO)N1C[C@H](C)[C@@H](CN(C)C(=O)C2CCCCC2)Oc2ncc(C#CC3CCCC3)cc2C1=O | -25 | -30
CC(=O)N1[C@@H]2Cn3c(ccc(-c4ccncc4)c3=O)[C@H]1[C@@H](C(=O)NC1Cc3ccccc3C1)[C@@H]2CO | 1 | 11
O=C(NC[C@H]1N[C@@H](CO)[C@H]1c1ccc(-c2ccccc2F)cc1)c1ccccn1 | 13 | 16
Cc1ccc(S(=O)(=O)N(C)C[C@H]2OCCCC[C@@H](C)Oc3ccc(NC(=O)CCC(F)(F)F)cc3C(=O)N([C@H](C)CO)C[C@H]2C)cc1 | u | x
CCNC(=O)c1cc2c(c(-c3cccc(-c4ccncc4)c3)n1)[C@H](CCO)N(S(=O)(=O)CC)C2 | u | x
Cc1ccccc1S(=O)(=O)N[C@H]1CC[C@H](CCn2cc(Cc3ccccc3)nn2)O[C@@H]1CO | -5 | -1
C[C@@H]1CN([C@H](C)CO)C(=O)c2cc(NS(=O)(=O)c3cn(C)cn3)ccc2O[C@@H]1CN(C)Cc1ccc(Oc2ccccc2)cc1 | 23 | 7
O=C(C[C@@H]1CC[C@H]2[C@@H](COC[C@H](O)CN2Cc2nccs2)O1)NCc1ccc(Cl)cc1 | -8 | -10
N#Cc1ccc(-c2ccc([C@H]3[C@@H](CO)N4CCCCN(S(=O)(=O)c5ccccc5)C[C@H]34)cc2)cc1 | -20 | -18
COc1ccc(NC(=O)N2C[C@@H](O)COC[C@H]3O[C@H](CC(=O)N4CCOCC4)CC[C@@H]32)cc1 | 11 | 3
Cc1noc(C)c1NC(=O)Nc1ccc2c(c1)CC(=O)N([C@H](C)CO)C[C@H](C)[C@@H](CN(C)C)O2 | 14 | 13
COc1cccc(CNC(=O)C[C@H]2CC[C@@H](NC(=O)C3CC3)[C@@H](CO)O2)c1 | 6 | 1
O=C(c1ccc2c(c1)OCO2)N1CC(=O)N2[C@H](C1)[C@@H](c1ccc(C#CCC3CCCC3)cc1)[C@@H]2CO | u | x
C[C@@H]1CN([C@@H](C)CO)C(=O)Cc2cc(NC(=O)Nc3ccc4c(c3)OCO4)ccc2O[C@H]1CN(C)Cc1ccc(C(F)(F)F)cc1 | u | x
COc1ccc(S(=O)(=O)Nc2ccc3c(c2)C(=O)N([C@@H](C)CO)C[C@@H](C)[C@@H](CN(C)C(=O)Nc2c(C)noc2C)OCCCC[C@H](C)O3)cc1 | 2 | 3
C[C@H](CO)N1C[C@H](C)[C@@H](CN(C)S(=O)(=O)c2ccc(Cl)cc2)Oc2ccc(NC(=O)CCCN(C)C)cc2C1=O | 6 | 10
C[C@H]1CN([C@@H](C)CO)C(=O)Cc2cc(NS(=O)(=O)c3cccs3)ccc2O[C@@H]1CN(C)Cc1ccc(C(=O)Nc2ccccc2N)cc1 | 12 | 0
CO[C@H]1CN(C)C(=O)c2cc(NC(=O)Nc3ccc4c(c3)OCO4)ccc2OC[C@H](C)NC[C@H]1C | 23 | 21
COc1ccc(CN2C[C@H](C)[C@@H](OC)CN(C)C(=O)c3ccc(NC(=O)c4nc5ccccc5s4)cc3OC[C@H]2C)cc1 | -29 | -18
C[C@@H]1CN([C@H](C)CO)C(=O)c2cc(NC(=O)Nc3cccc4ccccc34)ccc2O[C@@H](C)CCCCO[C@@H]1CN(C)C(=O)c1ccccc1 | 4 | 2
Cc1ccc(S(=O)(=O)Nc2cccc3c2O[C@H](CN(C)S(=O)(=O)c2ccc(C)cc2)[C@H](C)CN([C@H](C)CO)C3=O)cc1 | -12 | -9

For convenience, some entries already given.
SMILES | Vaccinia stage | Vaccinia stage Venus
N#Cc1ccc(-c2ccc([C@H]3[C@@H](CO)N4CCCCN(S(=O)(=O)c5ccccc5)C[C@H]34)cc2)cc1 | -20 | -18
COc1ccc(NC(=O)N2C[C@@H](O)COC[C@H]3O[C@H](CC(=O)N4CCOCC4)CC[C@@H]32)cc1 | 11 | 3
Cc1noc(C)c1NC(=O)Nc1ccc2c(c1)CC(=O)N([C@H](C)CO)C[C@H](C)[C@@H](CN(C)C)O2 | 14 | 13
COc1cccc(CNC(=O)C[C@H]2CC[C@@H](NC(=O)C3CC3)[C@@H](CO)O2)c1 | 6 | 1
O=C(c1ccc2c(c1)OCO2)N1CC(=O)N2[C@H](C1)[C@@H](c1ccc(C#CCC3CCCC3)cc1)[C@@H]2CO | u | x
C[C@@H]1CN([C@@H](C)CO)C(=O)Cc2cc(NC(=O)Nc3ccc4c(c3)OCO4)ccc2O[C@H]1CN(C)Cc1ccc(C(F)(F)F)cc1 | u | x
COc1ccc(S(=O)(=O)Nc2ccc3c(c2)C(=O)N([C@@H](C)CO)C[C@@H](C)[C@@H](CN(C)C(=O)Nc2c(C)noc2C)OCCCC[C@H](C)O3)cc1 | 2 | 3
C[C@H](CO)N1C[C@H](C)[C@@H](CN(C)S(=O)(=O)c2ccc(Cl)cc2)Oc2ccc(NC(=O)CCCN(C)C)cc2C1=O | 6 | 10
C[C@H]1CN([C@@H](C)CO)C(=O)Cc2cc(NS(=O)(=O)c3cccs3)ccc2O[C@@H]1CN(C)Cc1ccc(C(=O)Nc2ccccc2N)cc1 | 12 | 0
CO[C@H]1CN(C)C(=O)c2cc(NC(=O)Nc3ccc4c(c3)OCO4)ccc2OC[C@H](C)NC[C@H]1C | 23 | 21

Going on with the list:
SMILES | Vaccinia stage | Vaccinia stage Venus
C[C@@H]1CN([C@H](C)CO)C(=O)c2cccc(NC(=O)C3CCOCC3)c2O[C@H]1CN(C)S(C)(=O)=O | 18 | 14
CS(=O)(=O)N1CC2(C1)[C@H](c1ccccc1)[C@@H](CO)N2Cc1ccccn1 | -6 | 5
COc1ccc(NC(=O)N(C)C[C@H]2Oc3ccc(NS(C)(=O)=O)cc3C(=O)N([C@H](C)CO)C[C@H]2C)cc1 | 17 | 8
Cc1ccccc1-c1ccc2c(c1)O[C@H](CN(C)Cc1ccncc1)[C@@H](C)CN([C@H](C)CO)S2(=O)=O | -23 | -20
COc1ccc(S(=O)(=O)Nc2ccc3c(c2)C(=O)N([C@@H](C)CO)C[C@@H](C)[C@@H](CN(C)C(=O)CCCN(C)C)OCCCC[C@@H](C)O3)cc1 | 18 | 11
COc1ccc2c3c([nH]c2c1)[C@@H](CO)N(C(=O)Nc1ccc(F)cc1)CC31CN(Cc2nccs2)C1 | 5 | -4
CC(C)OC(=O)N(C)C[C@H]1OCc2ccccc2-c2ccccc2C(=O)N([C@H](C)CO)C[C@@H]1C | 12 | 2
O=C(CC1CC1)N1CC(=O)N2[C@H](CO)[C@@H](c3ccc(-c4cccnc4)cc3)[C@H]2C1 | 12 | 3
O=C(C[C@@H]1C=C[C@H](NC(=O)C2CCC2)[C@@H](CO)O1)NCC1CC1 | 17 | 2
C[C@@H]1CN([C@@H](C)CO)C(=O)Cc2cc(NC(=O)Nc3cccc4ccccc34)ccc2O[C@H]1CN(C)C(=O)Nc1ccc(C(F)(F)F)cc1 | -15 | -3
COc1ccccc1NC(=O)N[C@@H]1CC[C@@H](CCNS(=O)(=O)c2ccccc2)O[C@@H]1CO | 0 | -5
N#C[C@H]1[C@@H](c2ccc(C3=CCCCC3)cc2)[C@@H](CO)N1C(=O)NC1CCCCC1 | -2 | 5
C[C@@H]1CN([C@H](C)CO)S(=O)(=O)c2ccc(/C=C/c3ccccc3)cc2O[C@@H]1CN(C)C(=O)c1ccccc1 | u | x
Cc1ccc(S(=O)(=O)Nc2ccc3c(c2)C(=O)N([C@@H](C)CO)C[C@H](C)[C@@H](CN(C)Cc2ccc(C(F)(F)F)cc2)OCCCC[C@@H](C)O3)cc1 | u | x
COc1ccccc1CN1[C@@H]2CN(C(=O)c3cccnc3)c3ccccc3[C@@H]2[C@@H]1CO | 5 | -1
CC(C)C#Cc1ccc([C@H]2[C@@H](C#N)N(C(=O)c3cccc(F)c3)[C@H]2CO)cc1 | 5 | -4
N#C[C@@H]1[C@@H](c2ccc(-c3cncnc3)cc2)[C@H](CO)N1C(=O)C1CCCC1 | 18 | 6
O=C(C[C@@H]1CC[C@@H]2[C@H](COC[C@H](O)CN2S(=O)(=O)c2ccc(F)cc2)O1)NCc1ccncn1 | 12 | -2
COc1ccccc1-c1ccc2n(c1=O)C[C@H]1[C@H](CO)[C@@H](C(=O)N(C)C)N[C@@H]21 | 9 | 0
COCC#Cc1cnc2c(c1)C(=O)N([C@@H](C)CO)C[C@H](C)[C@@H](CN(C)C(=O)Nc1c(C)noc1C)O2 | 21 | 22
C[C@H]1CN([C@@H](C)CO)C(=O)c2cc(NC(=O)Nc3ccccc3)ccc2O[C@@H]1CN(C)C(=O)Nc1cccc2ccccc12 | 19 | 14
CN1C(=O)c2cc(NC(=O)Cc3cccs3)ccc2OC[C@H]2O[C@@H](CC(=O)NCc3ccc(-c4ccccc4)cc3)CC[C@H]21 | -12 | 0
C[C@H]1CCCCO[C@@H](CN(C)C(=O)Nc2ccc(F)cc2)[C@@H](C)CN([C@@H](C)CO)C(=O)c2cc(NS(=O)(=O)c3cccs3)ccc2O1 | u | x
